NPYLR7 agonist: agonists of mosquito NPYLR7 receptor, primary screen, cell-based, Aedes aegypti, calcium fluorescence, mosquito biting behavior. Aedes aegypti neuropeptide Y-like receptor 7 (NPYLR7). HEK293T NPYLR7/Galpha15, GCaMP6s calcium fluorescence. activation, % at 10 µM. hit rate 0.15% among 270,000. AID 1259423, 2018; in the data active = activation above about 40%;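 note: 0% = vehicle and 100% = reference agonist at the receptor; some compounds past the cut are filed as inactive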
NPYLR7 agonist max-min: recorded beside NPYLR7 agonist, whose call it bears; activation, %; measured here: Max-Min RFU normalised activation; some inactives read as strong as hits;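 span of the calcium signal over five minutes; 0% = vehicle and 100% = native peptide agonist; compound fluorescence can raise it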
Numbers without * were called inactive. Some of the compounds tested; rates above refer to the full screens.

SMILES	NPYLR7 agonist	NPYLR7 agonist max-min
CCOc1ccccc1N1CCN(C(=O)c2ccc(C(F)(F)F)cc2)C(C)C1=O (stereo not drawn)	-4	9
COc1cc(NC(=O)N(CCN(C)C)CC(C)C)cc(OC)c1	-1	-5
COC(=O)Cc1cc(=O)n2[nH]c(C)c(-c3ccc(Br)cc3)c2n1	-13	-22
COCc1c(Br)c(C)nc(OCC(=O)N/N=C\c2c[nH]c3ccccc23)c1C#N	-9	-14
CC1(C)[C@H]2CC=C(CN3C[C@H]4C[C@H](O)[C@H](O)C[C@H]4C3)[C@@H]1C2	15	6
COc1ccc(OCC(=O)N=Nc2c(O)[nH]c3c(C)cccc23)c(Br)c1	-8	-11
CONC(=O)c1oc2c(ccc3ccccc32)c1C	-1	0
COc1c(F)cc(-c2cccc(NC(C)=O)c2)cc1F	-2	-5
Cc1noc(C)c1CC(=O)N1CCNC(=O)CC1c1ccccc1 (stereo not drawn)	-6	-4
COc1ccc(-c2nccn2CC(C)Oc2cccnc2)c(F)c1F (stereo not drawn)	5	1
COc1cccc(NC2=NC3CS(=O)(=O)CC3S2)c1 (stereo not drawn)	0	-3
CN1CCCC2(CCN(C(=O)Cc3cccc4ccccc34)C2)C1=O (stereo not drawn)	14	11
CCOc1ccc2nc(N3CCCC(N(C)Cc4nccn4CC)CC3)nc(C)c2c1 (stereo not drawn)	14	2
Cc1cc(C)nc(SCc2cc(=O)c(OC(=O)CC(c3ccccc3)c3ccccc3)co2)n1	-23	-4
CCCNC(=O)c1c(NC(=O)c2ccccc2Cl)sc2c1CCC(C)C2 (stereo not drawn)	-7	-2
Cc1ccc(CN(C)Cc2nc(COc3ccccc3)no2)o1	22	8
CCOC(=O)Cn1c(=O)c2c(nc3n(-c4ccccc4)c(C)c(C)n23)n(C)c1=O	17	5
c1cc(CNC2C3CCCC2CN(C2CC2)C3)c2c(c1)OCCO2 (stereo not drawn)	1	-1
Cc1cccc(CN2CCN(C(=O)c3ccc(OCC(N)=O)cc3)CC2=O)c1	6	4
CCC1(CC)NC(=O)N(Cc2ccn(-c3ccccc3)n2)C1=O	15	14

Three structures already listed, arranged by molecular weight, low to high:
SMILES	NPYLR7 agonist	NPYLR7 agonist max-min
COc1cccc(NC2=NC3CS(=O)(=O)CC3S2)c1 (stereo not drawn)	0	-3
c1cc(CNC2C3CCCC2CN(C2CC2)C3)c2c(c1)OCCO2 (stereo not drawn)	1	-1
CN1CCCC2(CCN(C(=O)Cc3cccc4ccccc34)C2)C1=O (stereo not drawn)	14	11

Remaining list, next part:
SMILES	NPYLR7 agonist	NPYLR7 agonist max-min
CC(C)c1ccc(CN2CCCC3(CCN(C(=O)c4ccnn4C)C3)C2)cc1 (stereo not drawn)	7	3
COC(=O)CN(C)C(=O)c1cccc(NC(=O)C(C)(C)C)c1	11	4
O=C1Oc2ccccc2C(=O)C1=CN1CCN(c2ccccn2)CC1	5	4
Cc1[nH]c(=S)sc1CC(=O)NC1CCc2c(Cl)cccc21 (stereo not drawn)	2	2
CCc1nc2ccc(C(=O)Nc3cccc(OC)c3)cn2c1N(C)CCC(C)C	-7	-10
Cc1cc(=O)[nH]c(-n2nc(C3CC3)cc2NC(=O)c2ccco2)n1	5	7
Cc1c(Cl)cccc1N1CN(C(=O)CN(CC(C)C)C(=O)C2CC2)CC1=O	27	22
Cc1ccccc1C(=O)N[C@@H]1CCCCC1NC(=O)C1CCN(C(=O)c2ccc(C(F)(F)F)cc2)CC1 (stereo partly drawn)	5	14
CCC(c1nc2ccccc2c(=O)n1-c1ccc(Br)cc1)N(CC)C(=O)c1cccc(OC)c1 (stereo not drawn)	-3	8
Cc1cc(C)n(CC(C)NCCN2CCc3ccccc32)n1 (stereo not drawn)	5	-7
O=C(NN=C1CC2CC1C1CCCC21)C1CCCO1 (stereo not drawn)	5	3
Cc1ncc(-c2ccc(NC(=O)C3CC3C)cc2)o1 (stereo not drawn)	2	-1
Cc1nnc(SCC(=O)N2CC3(C)CC2CC(C)(C)C3)[nH]c1=O (stereo not drawn)	3	1
NC(=O)CCCNC(=O)c1ccc(Oc2ccc(F)cc2F)cc1	14	11
COc1ccc(-c2ncncc2Oc2ccccc2Br)c(O)c1	2	-3
O=[N+]([O-])c1ccccc1OCCCOc1ccc(Cl)c2cccnc12	-6	13
CC1Cc2cc(CNC(=O)CCNC(=O)c3ccc(F)cc3)ccc2O1 (stereo not drawn)	-4	-15
C=CC(C)(O)CN(CCC)Cc1c(CC)nn(-c2ccc(OC)cc2)c1Oc1ccccc1OC (stereo not drawn)	5	2
CC(C)Oc1ccc2c(=O)c(Oc3ccc(F)cc3)coc2c1	2	3
Cn1c(CNC(=O)Cc2c(Cl)cccc2Cl)n[nH]c1=S	0	-2
COC(=O)[C@H]1C[C@@H](O)CCN1S(=O)(=O)c1cc(C)c(Cl)cc1C	8	-3
CC(=O)Nc1ccc(/C=C/c2ncc(/C=C/C(=O)O)s2)cc1	15	11
Cc1ccc(NCCCn2cnc(-c3ccccc3)c2-c2cnc[nH]2)nc1	2	3
CCCc1nc(C(=O)N2CC[C@H](O)C[C@@H]2C(=O)OC)cs1	13	6
CC(C)=CCC/C(C)=C/CNS(=O)(=O)c1cc(C)c(Cl)cc1C	0	-9
COc1ccc(OC)c(C(=O)c2ccc(C(=O)NCC3Cc4cccc(-c5ccncc5)c4O3)cc2)c1 (stereo not drawn)	15	7
Cc1ccc(C(=O)NNC(=O)c2ccoc2C)cc1C	9	7
O=C1C(C(c2ccco2)N2CCN(c3ccccc3)CC2)Sc2ncnn21 (stereo not drawn)	2	1
CC1(C(=O)NCc2cccs2)CCN1C(=O)CC1CCCC1 (stereo not drawn)	5	2
Cc1cc(C)nc(Nc2n[nH]c(-c3ccc(C(C)(C)C)cc3)n2)n1	3	3
COc1ccc(-c2nnc3n(CC(C)C)c4c(=O)n(C)c(=O)n(C)c4n23)cc1	8	3
Cc1cc2c(C)nc(-c3ccccc3)nc2o1	5	5
CN1c2ccccc2C(C)(C)C12C=Cc1cc([N+](=O)[O-])ccc1O2 (stereo not drawn)	-1	-2
COC(=O)c1cccc(NC(=O)N2CCc3ccccc3C2c2ccc(Cl)cc2)c1 (stereo not drawn)	23	8
O=C(C1CCCN(c2nnc(N3CCCC3=O)s2)C1)N1CCCC1 (stereo not drawn)	2	1
O=c1[nH]c(/C=C\c2ccc(N3CCOCC3)cc2)c([N+](=O)[O-])c(=O)[nH]1	2	3
CC(C)CN1CCC[C@@H]1CNC(=O)c1ccc(OCC(F)(F)F)nc1	-4	-4
CN(CC1CCCN(CCc2ccc(Cl)cc2)C1)C(=O)c1ccsc1 (stereo not drawn)	4	6
CC(C)(C)C(=O)COC(=O)c1ccccc1N1CCN(CCO)CC1	-6	-6
NS(=O)(=O)c1ccc(CCNc2ncnc3c2c(-c2ccccc2)cn3-c2ccc(F)cc2)cc1	-3	-6

As entered above.
COC(=O)[C@H]1C[C@@H](O)CCN1S(=O)(=O)c1cc(C)c(Cl)cc1C | NPYLR7 agonist max-min = -3
CONC(=O)c1oc2c(ccc3ccccc32)c1C | NPYLR7 agonist max-min = 0
CC1Cc2cc(CNC(=O)CCNC(=O)c3ccc(F)cc3)ccc2O1 (stereo not drawn) | NPYLR7 agonist max-min = -15

(more compounds)
SMILES	NPYLR7 agonist	NPYLR7 agonist max-min
O=C(NCCNc1ncnc2ccsc12)c1ccc(F)cc1F	4	11
O=C(C1c2ccccc2Oc2ccccc21)N1CCN(c2ncnc3c2nnn3-c2ccccc2)CC1	2	-8
C(=C\c1ccccc1)/CN1CCN(c2c3c(nc4ncnn24)CCCC3)CC1	5	2
COc1ccc(/C=C2\C=C(c3ccccc3)N(c3ccccc3OC)C2=O)cc1Br	0	7
CCOC(=O)Cn1c(=O)c2c(nc3n2CCCCN3c2ccc(C)cc2)n(C)c1=O	22	21
CCCOC(=O)C1=C(C)NC2=C(C(=O)CC(c3ccc(Cl)cc3)C2)C1c1ccc(N(C)C)cc1 (stereo not drawn)	1	1
O=C(c1cc(-c2ccccc2)nn1-c1ccc(Cl)c(Cl)c1)N1CCN(Cc2ccccc2)CC1	-1	8
CC(C)(CCl)C(=O)N1CCC2(CC1)C(=O)N(CC(=O)NCCc1ccccc1)CN2c1ccccc1	10	21
CCOC(=O)c1oc2c(C)cccc2c1CNc1cnccn1	-6	-11
CC1CC(=O)N(C)c2ccccc2N1S(=O)(=O)c1ccc(F)cc1 (stereo not drawn)	-10	728
CCOC(=O)[C@H]1[C@@H](O)C(=O)N(Cc2ccccc2)C12CCN(C(=O)Cc1ccc(OC)cc1)CC2	6	19
Cc1cc(-c2nc[nH]c2-c2ccccc2)cc(C)c1O	13	5
O=C(NCC1CCCO1)c1ccc(NS(=O)(=O)c2ccc(F)c(F)c2)cc1 (stereo not drawn)	2	0
CNC(=O)c1cccc(C(=O)C(C#N)c2ccccn2)c1 (stereo not drawn)	-4	-5
COCCN1CCC(C(=O)N2CCC3(C=Cc4ccccc43)CC2)C1 (stereo not drawn)	25	11
CCCNC(=O)COc1coc(CN2CCc3ccccc32)cc1=O	6	6
O=C(CC(c1ccc(Cl)c(C(F)(F)F)c1)c1c[nH]c2ccccc12)N1CCN(Cc2ccc3c(c2)OCO3)CC1 (stereo not drawn)	25	25
Cc1ccc(CN(Cc2ccc(F)cc2)C(=O)CN(CCN2CCOCC2)S(=O)(=O)c2ccc(Br)cc2)o1	5	18
Nc1nc2c(s1)CN(Cc1cc3n(n1)CCCNC3)CC2	-1	27
FC(F)(F)c1cccc(CNCC2COc3ccccc3O2)c1 (stereo not drawn)	-1	0
Cc1ccccc1C(=O)NC(c1ccccc1)C(C)(C)C (stereo not drawn)	4	0
CCc1cc(NCc2cccc(C)c2)n2ncnc2n1	-2	7
CN1CCCn2nc(C(=O)NCC(O)c3cccnc3)cc2C1 (stereo not drawn)	3	3
N#Cc1ccc(C(=O)N2CCN(Cc3ccc(-c4noc(-c5cccc(C(F)(F)F)c5)n4)cc3)CC2)cc1	2	1
Cc1cccc(CSc2nc(=O)n3cccc(C)c3n2)c1	2	-2
COc1cc2ncc(-c3nnnn3-c3ccc(F)cc3)c(C)c2cc1OC	-5	-7
O=C(CNC(=O)c1cccc(Br)c1)NC1CCN(Cc2ccc(F)cc2)CC1	7	7
O=S(=O)(NC(c1ccc(F)cc1)c1ccccc1Cl)c1cccs1 (stereo not drawn)	8	1
Cc1ccc(/C=N\Nc2nc(-c3ccc4c(c3)OCCO4)cs2)cc1	-4	-2
CN1CCC2(CC1)CC(=O)c1cc(-c3cccc(C(=O)N(CCC#N)Cc4ccccc4)c3)ccc1O2	9	9
CCCCNC(=O)CSc1nc2ccccc2c(=O)n1-c1ccc(C)cn1	9	1
CC(C)(C)c1nc2ccc(N)cc2[nH]1	8	14

Reformatted: results already given
Results follow in this order: NPYLR7 agonist, NPYLR7 agonist max-min
CC(C)(CCl)C(=O)N1CCC2(CC1)C(=O)N(CC(=O)NCCc1ccccc1)CN2c1ccccc1
    10, 21
CCOC(=O)c1oc2c(C)cccc2c1CNc1cnccn1
    -6, -11
CC1CC(=O)N(C)c2ccccc2N1S(=O)(=O)c1ccc(F)cc1 (stereo not drawn)
    -10, 728
CCOC(=O)[C@H]1[C@@H](O)C(=O)N(Cc2ccccc2)C12CCN(C(=O)Cc1ccc(OC)cc1)CC2
    6, 19
Cc1cc(-c2nc[nH]c2-c2ccccc2)cc(C)c1O
    13, 5
O=C(NCC1CCCO1)c1ccc(NS(=O)(=O)c2ccc(F)c(F)c2)cc1 (stereo not drawn)
    2, 0
CNC(=O)c1cccc(C(=O)C(C#N)c2ccccn2)c1 (stereo not drawn)
    -4, -5
COCCN1CCC(C(=O)N2CCC3(C=Cc4ccccc43)CC2)C1 (stereo not drawn)
    25, 11
CCCNC(=O)COc1coc(CN2CCc3ccccc32)cc1=O
    6, 6
O=C(CC(c1ccc(Cl)c(C(F)(F)F)c1)c1c[nH]c2ccccc12)N1CCN(Cc2ccc3c(c2)OCO3)CC1 (stereo not drawn)
    25, 25
Cc1ccc(CN(Cc2ccc(F)cc2)C(=O)CN(CCN2CCOCC2)S(=O)(=O)c2ccc(Br)cc2)o1
    5, 18
Nc1nc2c(s1)CN(Cc1cc3n(n1)CCCNC3)CC2
    -1, 27
FC(F)(F)c1cccc(CNCC2COc3ccccc3O2)c1 (stereo not drawn)
    -1, 0
Cc1ccccc1C(=O)NC(c1ccccc1)C(C)(C)C (stereo not drawn)
    4, 0
CCc1cc(NCc2cccc(C)c2)n2ncnc2n1
    -2, 7
CN1CCCn2nc(C(=O)NCC(O)c3cccnc3)cc2C1 (stereo not drawn)
    3, 3
N#Cc1ccc(C(=O)N2CCN(Cc3ccc(-c4noc(-c5cccc(C(F)(F)F)c5)n4)cc3)CC2)cc1
    2, 1
Cc1cccc(CSc2nc(=O)n3cccc(C)c3n2)c1
    2, -2
COc1cc2ncc(-c3nnnn3-c3ccc(F)cc3)c(C)c2cc1OC
    -5, -7
O=C(CNC(=O)c1cccc(Br)c1)NC1CCN(Cc2ccc(F)cc2)CC1
    7, 7
O=S(=O)(NC(c1ccc(F)cc1)c1ccccc1Cl)c1cccs1 (stereo not drawn)
    8, 1
Cc1ccc(/C=N\Nc2nc(-c3ccc4c(c3)OCCO4)cs2)cc1
    -4, -2

Screening data as filed in PubChem BioAssay.
